# Screening results as filed in PubChem BioAssay.
# RE007 growth inh: less growth of the S. pombe RE007 Vpr strain; actives 0.21% (n = 360,000); S. pombe RE007 Vpr strain, BacTiter-Glo ATP luminescence, 24 h; control for the full effect not named in the record; Potency, µM (top dose mostly 92.2 µM), inactives show at the highest dose activity change, negative = less growth; active = well fitted falling curve with a large enough effect; inconclusive = small, poorly fitted or top-dose-only effect; inactive = no such curve, though single readings can be large or run the other way;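 note: % is set by controls: 0 for no effect and ±100 for the full control effect; nearly all actives have a fitted effect of over 50% in size; the assay follows cell death caused by Vpr and the record does not say whether a fall means rescue or toxicity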
#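 Fission yeast strain RE007, carrying one chromosomally integrated HIV-1 vpr copy, was seeded at OD 0.01 in PMG+AL medium with 23 nL pinned compound. After 24 h at 30 °C and 99% humidity, viability was read by BacTiter-Glo luminescence.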
# StopGo reporter: FMDV 2A StopGo reporter, luciferase signal | human cells with a luciferase reporter of 2A StopGo recoding; control for the full effect not named in the record | Potency, µM (highest dose often 57.9 µM), without a hit: top-dose signal change, negative = less light | actives 1.2% (n = 410,000); active = well fitted falling curve with a large enough effect; inconclusive = small, poorly fitted or top-dose-only effect; inactive = no such curve, though single readings can be large or run the other way; tested in HEK293T cells; note: % is set by controls: 0 for no effect and ±100 for the full control effect; nearly all actives have a fitted effect of over 45% in size; luciferase light after 4 h
# Cruzain inh noDet: cruzain (T. cruzi) inhibition without detergent; P25779; purified cruzain, Z-FR-AMC fluorescence, no detergent; Potency, µM, inactives show max response, negative = inhibition, most hits filed as inhibitors; actives 2.3% (n = 200,000); AID 1476; active = well fitted curve in the direction sought with a large enough effect; inconclusive = small, poorly fitted or top-dose-only effect, or another doubt; inactive = no such curve, though single readings can be large; an effect the other way counts as inactive or inconclusive;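 note: plate controls were enzyme without inhibitor for no effect and buffer without enzyme for full effect; nearly all actives have a fitted effect of over 40% in size; top concentration of the series not given in the record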
# Target sequence (P25779 123-467 limits assumed): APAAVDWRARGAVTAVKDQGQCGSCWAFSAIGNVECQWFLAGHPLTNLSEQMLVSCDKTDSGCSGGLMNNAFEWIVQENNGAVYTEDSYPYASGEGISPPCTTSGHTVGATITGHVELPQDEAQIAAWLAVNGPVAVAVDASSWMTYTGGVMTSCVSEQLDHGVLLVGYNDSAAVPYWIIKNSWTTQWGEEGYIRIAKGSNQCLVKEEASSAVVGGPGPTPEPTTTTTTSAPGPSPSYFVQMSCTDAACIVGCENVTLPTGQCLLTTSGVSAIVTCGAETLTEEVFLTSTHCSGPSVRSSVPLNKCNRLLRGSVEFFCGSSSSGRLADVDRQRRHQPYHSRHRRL
#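 Detergent-free condition (0.00005% Triton X-100) in acetate buffer pH 5.5 with DTT. 1.5 nM enzyme and compound were pre-mixed 15 min, then 2 uM Z-FR-AMC substrate added; reaction progress from fluorescence change between first and third reads (60 s).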
# Marburg entry inh: Marburg virus entry inhibition; Marburg virus pseudotyped entry inhibition, cell reporter; control for the full effect not named in the record; about a third of the inactives were read at about 46 µM; AID 540276; Potency, µM (series often up to 37.8 µM), for inactives: at the top dose activity change, negative = inhibition, hits mostly inhibitors; actives 1.8% (n = 300,000); active = well fitted inhibition curve with a large enough effect; inconclusive = small, poorly fitted or top-dose-only effect, or effect the other way; inactive = flat fitted curve, though single readings scatter; tested in HEK293 cells; about a fifth of its hits are not listed in these tables; note: % is set by controls: 0 for no effect and ±100 for the full control effect; luciferase read-out
# SARS PLpro yeast: inhibitors of SARS-CoV papain-like protease in yeast; S. cerevisiae expressing SARS-CoV PLpro, growth rescue; control for the full effect not named in the record; Potency, µM (titrated, usually from 32.9 µM), without a hit: at the top dose activity, positive = growth rescue; actives 0.19% (n = 330,000); note: 0% is about no effect; nearly all actives have a fitted effect of over 55% in size; growth read by luminescence after 48 h
# LASV entry inh: inhibitors of Lassa virus binding or cell entry; AID 540256; Lassa virus pseudotype entry inhibition, cell reporter; control for the full effect not named in the record; actives 1.2% (n = 300,000); Potency, µM (top dose mostly 37.9 µM), inactives show at the top dose activity change, negative = inhibition, actives largely listed as inhibitors; active means well fitted inhibition curve with a large enough effect; inconclusive means small, poorly fitted or top-dose-only effect, or effect the other way; inactive means flat fitted curve, though single readings scatter; tested in HEK293 cells; note: % is set by controls: 0 for no effect and ±100 for the full control effect; nearly all actives have a fitted effect of over 50% in size; luciferase read-out
# Cruzain inh Det: cruzain (T. cruzi) inhibition with detergent. purified cruzain, Z-FR-AMC fluorescence, 0.01% Triton. Potency, µM, without a hit: max response, negative = inhibition, most hits filed as inhibitors. actives 0.43% (n = 200,000); active = well fitted curve in the direction sought with a large enough effect; inconclusive = small, poorly fitted or top-dose-only effect, or another doubt; inactive = no such curve, though single readings can be large; an effect the other way counts as inactive or inconclusive;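 note: plate controls were neutral wells for no effect and buffer without enzyme for full effect; nearly all actives have a fitted effect of over 40% in size; top concentration of the series not given in the record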
#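 15 min RT preincubation of 1.5 nM cruzain with compound, then 2 uM Z-FR-AMC added; kinetic AMC fluorescence, 60 s delta. Triton X-100 0.01%, pH 5.5.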
# NS1 function inh: blocks influenza NS1 protein function | S. cerevisiae slowed by influenza A NS1, growth recovery by OD600 | Potency, µM (highest dose often 46.1 µM), for inactives: at the highest dose activity, positive = more growth | actives 0.4% (n = 270,000); note: actives are rising curves; nearly all actives have a fitted effect of over 50% in size
#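 Read-out: OD600 growth recovery of NS1-expressing budding yeast. Cells grown overnight at 30C in -URA glucose medium, washed, resuspended and diluted 1:100 in 2% galactose assay medium, pH 6.0. Same strain lacking NS1 served as positive control.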
# Active calls of the source: *; u = inconclusive; x = not tested or not shown; & = joins results of further samples; [ ] = dose if it differs, or a comment. Unless noted, calls come from the whole dose curve; as a rule, active means well fitted rising curve with a large enough effect; inconclusive means small, poorly fitted or top-dose-only effect; inactive means no such curve, though single readings can be large or run the other way. Potency is the fitted concentration of half-maximal effect.
SMILES	RE007 growth inh	StopGo reporter	Cruzain inh noDet	Marburg entry inh	SARS PLpro yeast	LASV entry inh	Cruzain inh Det	NS1 function inh
CCOc1ccccc1OCC(=O)Nc1ccccc1C(=O)NC1CC1	12.2%	-18.7%	x	-28.2%[46.1 µM]	-2.2%	u	x	x
CN(NC(=O)Nc1ccccc1)c1cnn(C)c(=O)c1Cl	33.2%	-15.4%	x	x	0.4%	x	x	0.9%
COc1ccc(C(=O)OCC(=O)Nc2c(C)cccc2C)cc1	3.9%	10.5%	x	-9.0%[46.1 µM]	5.2%	1.3%	x	-1.2%
O=C(OC1CCc2ccccc2C1=O)c1ccccc1O (centres undefined)	u	36.3%[activator]	-6.7%	u	-13.1%	16.8%	-2.2%	-11.9%
COc1coc(C(O)C[N+](=O)[O-])cc1=O (centres undefined)	-13.3%	7.0%	2.6%	-16.5%	3.4%	18.2%	-0.7%	2.8%
COc1ccc(NC(=O)C2CCN(S(=O)(=O)c3cccnc3)CC2)cc1Cl	7.5%	-11.3%	9.8%	7.1%	6.3%	-0.6%	2.5%	4.7%
O=C(c1ccc2c(c1)CCN2S(=O)(=O)c1ccccc1)N1CCN(c2ccccc2F)CC1	-6.1%	1.7%&-13.7%	5.9%	6.7%&6.7%[46.1 µM]	-2.1%	8.0%[46.1 µM]	-2.5%	5.5%
COc1ccc(O[C@H]2C=C[C@@H](c3ccccc3)O[C@@H]2CO/N=C(\C)CCC(=O)OC[C@H]2O[C@H](c3ccccc3)C=C[C@@H]2Oc2ccc(OC)cc2)cc1	x	x	-10.3%	-11.7%	-2.3%	u	1.5%	-11.7%
O=C(NC1CC2CCC(C1)N2Cc1ccccc1)c1ccccc1Cl (centres undefined)	-4.3%	-16.1%	x	x	-0.4%	x	x	5.2%
CCn1c(COc2ccccc2C(N)=O)nc2ccccc21	5.5%	-14.3%	-3.8%	-6.8%	15.2%	6.2%	0.8%	4.9%
Cc1ccc(-n2c(/C=C/c3cc(Br)cs3)nc3ccccc3c2=O)cc1C	x	-0.4%	u	x	x	-18.1%[46.1 µM]	-0.1%	x
COc1ccc(OC)c(NC(=O)C2CC(=O)N(c3ccc(Br)cc3)C2)c1 (centres undefined)	0.3%	-16.3%	-0.3%	-22.3%	-2.2%	-13.8%	-3.3%	-18.0%
Clc1ccc(Cn2ccc(C3CC3)n2)cc1	-21.9%	1.7%	x	23.2%[46.1 µM]	2.4%	u	x	6.8%
Cc1cc(C)c2[nH]c(=O)c(C(c3nnnn3Cc3ccc4c(c3)OCO4)N3CCCC3)cc2c1 (centres undefined)	-0.3%	-15.8%	-16.0%	-18.1%&-18.1%	7.7%	15.8%	-1.9%	0.1%
COc1ccc(-n2c(-c3ccc(Cl)cc3)c[n+]3c2CCc2ccccc2-3)cc1	-3.9%	u	x	11.2µM*	-0.7%	u	x	x
Cc1cc(C)n2nc(-c3sccc3-n3cccc3)cc2n1	-5.1%	u	2.4%	0.0%	5.0%	-16.6%	-0.7%	-20.4%
NS(=O)(=O)c1ccc(NC(=O)C(Sc2ccccc2)c2ccccc2)cc1 (centres undefined)	5.6%	0.2%	-1.9%	1.9%	5.2%	-22.9%	-7.2%	-4.1%
COCCCNC(=O)CSc1nc2c(sc3ccccc32)c(=O)n1CCc1ccccc1	x	9.4%	-4.1%	x	x	7.8%[46.1 µM]	1.3%	x
C[C@]12CCC(=O)C=C1CC[C@@H]1C2[C@H](O)C[C@]2(C)C(=O)CCC12 (some centres undefined)	3.4%	5.2%	x	x	0.8%	x	x	2.1%
CC(=O)N[C@@H]1[C@@H](O)[C@@H]2OC(c3ccccc3)OC[C@H]2O[C@@H]1N=[N+]=[N-] (some centres undefined)	10.1%	-0.3%	x	x	-1.1%	x	x	-2.9%
O=C(CN1Cc2ccccc2C1=O)Nc1ccc2c(c1)OCCO2	9.4%	27.6%	x	u	-1.4%	13.3%[46.1 µM]	x	1.7%
CCC(=O)Nc1nnc(S(=O)(=O)N(C)Cc2ccccc2)s1	x	5.4%	23.3%	x	x	-7.8%[46.1 µM]	-3.6%	x
CCc1nc2ccc(C(=O)NCc3ccccc3)cc2nc1CC	1.4%	0.0%	x	-7.0%	-0.3%	-24.1%	x	-4.5%
CCc1ccccc1N(C)C(=O)c1nn(-c2ccc(OC)cc2)c(=O)c2c1c1ccccc1n2C	x	-22.2%	6.8%	7.1%[46.1 µM]	x	1.7%[46.1 µM]	-0.9%	x
O=C(O)c1cc(=O)[nH]c2ccc(S(=O)(=O)Nc3ccc(F)cc3)cc12	12.3%	-13.7%	x	x	2.0%	x	x	0.7%
COc1ccc(C(=O)CN2C(=O)N(c3cc(C)ccc3C)S(=O)(=O)c3ccccc32)cc1	x	-25.3%	u	x	x	-9.5%[46.1 µM]	-1.1%	x
CNC(=O)CS(=O)CC(=O)Nc1cc(OCCOC)c(Cl)cc1Cl (centres undefined)	9.7%	-9.9%	x	11.4%[46.1 µM]	1.7%	-2.8%[46.1 µM]	x	2.1%
Cc1cccc(C2Nc3ccccc3C(=O)N2c2ccccc2)n1 (centres undefined)	2.6%	x	6.8%	-1.5%	9.4%	-0.4%	-6.4%	-13.0%
CN(c1ccccc1)S(=O)(=O)c1cccc(C(=O)Nc2ccc(N3CCOCC3)cc2)c1	2.5%	u	x	u	-0.2%	-54.4%	x	x
Cn1c(C(=O)N2CCN(c3cccc(C(F)(F)F)c3)CC2)cc2sccc21	3.7%	-20.8%	u	u	-2.8%	u	-8.3%	-70.8%
O=C(c1cccs1)c1no[n+]([O-])c1C(=O)c1cccs1	28.2µM*	15.8µM*	-16.9%	-14.2%&-14.2%&-14.2%	-17.3%	-5.5%	u	-132.4%
CCc1ccc(NC(=O)CC2C(=O)N(c3cccc(C)c3)C(=O)N2Cc2ccco2)cc1 (centres undefined)	x	-7.4%	3.2%	x	x	-23.8%[46.1 µM]	-5.2%	x
CCOc1nc(NC(=O)NS(=O)(=O)Oc2ccc(Cl)cc2)nc(-c2ccccc2)n1	x	14.9%	-6.4%	20.0%[46.1 µM]	x	15.7%[46.1 µM]	-0.8%	x
COC(=O)c1ccc(CN(Cc2ccc(C(=O)OC)o2)C(C)(C)C)o1	-2.4%	1.2%	14.2%	2.5%	-4.0%	-4.8%	1.8%	4.7%
CCOc1ccc(CCNC(=O)C2Cc3ccccc3N2C(=O)CC)cc1OCC (centres undefined)	x	-10.1%	7.4%	x	x	-23.2%[46.1 µM]	1.9%	x
COc1cccc(CNC(=O)CSc2nnc3c(n2)[nH]c2ccc(F)cc23)c1	-2.8%	u	x	3.1%[46.1 µM]	-0.6%	-2.3%[46.1 µM]	x	3.9%
Cn1c(SCC(=O)N/N=C/c2cccnc2)nnc1-c1ccccc1	0.6%	3.4%	x	7.6%	0.7%	-1.5%	x	3.9%
COc1cc(OC)c2c(-c3ccccc3)cc(=O)oc2c1C(CCN1CCCC1)c1ccc2c(c1)OCO2 (centres undefined)	0.2%	0.0%	x	x	-1.1%	x	x	-1.5%
Cc1cc(C)c(S(=O)(=O)NCCc2cc3ccc(C)cc3[nH]c2=O)c(C)c1	x	-9.5%	5.5%	-28.1%[46.1 µM]	x	28.2%[46.1 µM]	0.1%	x
CCOc1ccc(N2CC(C(=O)NCc3ccco3)CC2=O)cc1 (centres undefined)	0.5%	11.9%	x	2.9%[46.1 µM]	-11.2%	1.4%[46.1 µM]	x	-6.2%
CCCNC(=S)NNC(=O)c1cccs1	13.6%	3.1%	x	7.9%[46.1 µM]	1.3%	3.7%[46.1 µM]	x	6.3%
O=C(CCCCn1c(=O)[nH]c2ccsc2c1=O)N1CCN(c2cccc(Cl)c2)CC1	x	u	u	-20.3%[46.1 µM]	x	u	-3.2%	x
CCc1cccc(NC(=O)C2CCCN2S(=O)(=O)c2ccccc2C(F)(F)F)c1 (centres undefined)	12.1%	-16.3%	x	-28.5%	1.5%	-21.4%	x	x
N#Cc1nccnc1N1CCN(C(=O)Nc2ccccc2)CC1	11.8%	9.6%	x	5.2%	0.1%	-4.4%	x	-0.8%
COc1cc(NC(=O)C2CC2)c(OC)cc1NC(=O)CCC(=O)NC1CCN(Cc2ccccc2)CC1	13.8%	-13.9%	x	0.6%[46.1 µM]	1.2%	17.7%	x	5.7%
CCOCCCNC(=O)C1CCC(CNS(=O)(=O)c2ccc(Cl)cc2)CC1 (centres undefined)	3.3%	-12.2%	17.2%	12.9%	9.4%	-2.6%	4.6%	1.2%
CCC(CC)C(=O)N1CCN(Cc2nc3ccccc3c(=O)[nH]2)CC1	-3.5%	-12.0%	x	12.2%[46.1 µM]	0.3%	-15.1%[46.1 µM]	x	-2.2%

# Profiles, quoted from the list.
# CCOc1ccc(CCNC(=O)C2Cc3ccccc3N2C(=O)CC)cc1OCC (centres undefined) as listed: RE007 growth inh: x; StopGo reporter: -10.1%; Cruzain inh noDet: 7.4%; Marburg entry inh: x; SARS PLpro yeast: x; LASV entry inh: -23.2%[46.1 µM]; Cruzain inh Det: 1.9%; NS1 function inh: x
# O=C(c1cccs1)c1no[n+]([O-])c1C(=O)c1cccs1 as listed: RE007 growth inh: 28.2µM*; StopGo reporter: 15.8µM*; Cruzain inh noDet: -16.9%; Marburg entry inh: -14.2%&-14.2%&-14.2%; SARS PLpro yeast: -17.3%; LASV entry inh: -5.5%; Cruzain inh Det: u; NS1 function inh: -132.4%
